# Source: PubChem
# LANA-H2B inh = blocks KSHV LANA binding to histone H2A/H2B; actives 0.6% (n = 320,000); AID 2629; cell-free LANA-H2A/H2B peptide, fluorescence polarization; Q9QR71; inhibition, % (no concentration beside the values); in the data active = inhibition mostly above about 10%, no sharp cut-off; inactive = mostly below about 6.7%;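 note: stock transfer was 7.5 nL into about 10 µL; 0% = median of vehicle wells and 100% = median of positive control wells; one replicate is shown; the record names a cut of 25% in any replicate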
# B2AR ag = activates human beta-2 adrenergic receptor causing internalization. Am2.2-beta2AR cells, FAP receptor internalization, flow cytometry; reference of the scale not given here. P07550. response, % (concentration not given with the values). AID 504454. actives 0.43% (n = 340,000);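 active = response above a set limit, near 3 SD of response in nonfluorescent compounds, cut at about 42% in these data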;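 note: stock transfer was 100 nL into about 11 µL; a reference agonist was the positive control; negative values mostly stem from fluorescent compounds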
# Target sequence (P07550 whole entry, looked up): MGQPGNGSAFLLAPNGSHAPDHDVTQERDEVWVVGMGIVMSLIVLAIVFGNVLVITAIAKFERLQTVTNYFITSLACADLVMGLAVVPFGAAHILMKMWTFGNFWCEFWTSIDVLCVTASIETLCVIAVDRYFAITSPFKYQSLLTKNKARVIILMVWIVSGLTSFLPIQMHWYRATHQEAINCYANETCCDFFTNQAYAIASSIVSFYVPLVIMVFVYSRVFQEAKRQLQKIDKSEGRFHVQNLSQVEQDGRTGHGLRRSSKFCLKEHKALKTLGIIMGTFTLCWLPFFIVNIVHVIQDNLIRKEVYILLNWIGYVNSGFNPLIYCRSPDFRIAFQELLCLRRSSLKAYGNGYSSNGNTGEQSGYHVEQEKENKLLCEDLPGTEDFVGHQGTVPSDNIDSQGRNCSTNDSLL
# ALR inh = inhibitors of human sulfhydryl oxidase ALR | AID 485317 | actives 3.8% (n = 290,000) | purified ALR, DTT oxidation, H2O2 HRP-luminol luminescence | inhibition, % (test concentration not listed);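 active = mean and each replicate at 75% or more; inconclusive = only one of the two met; inactive = neither met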;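 note: stock transfer was 7.5 nL into about 7.5 µL; 0% = neutral wells and 100% = wells with inactivated enzyme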
# Target sequence (P55789 whole entry, looked up): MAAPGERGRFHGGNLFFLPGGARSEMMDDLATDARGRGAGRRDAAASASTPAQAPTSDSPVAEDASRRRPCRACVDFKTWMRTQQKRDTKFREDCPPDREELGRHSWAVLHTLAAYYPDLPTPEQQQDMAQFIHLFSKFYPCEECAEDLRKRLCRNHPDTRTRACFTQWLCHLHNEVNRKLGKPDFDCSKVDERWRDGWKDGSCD
# T cruzi repl = T. cruzi replication inhibition; actives 1.4% (n = 300,000); inhibition, % (test concentration not listed); T. cruzi beta-gal in NIH3T3, luminescence, 90 h;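 active = mean inhibition across valid replicates above about 55%, limit read from the data; inconclusive = mean below that limit but half or more replicates reach it; inactive = mean below it, under half of replicates reach it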;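 note: signal also drops with host cell toxicity which is not excluded here; 0% = plate median of DMSO wells and 100% = zero luminescence signal; higher percent means less beta-gal luminescence so fewer parasites; stock transfer was 50 nL into about 50 µL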
# Beta apoptosis = beta cell apoptosis inhibition | INS-1E cytokine-induced death, ATP luminescence, 48 h; percent of positive-control rescue, neutral wells zero | protection from apoptosis, % (no concentration beside the values) | actives 0.8% (n = 300,000) | AID 435005;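 active = all replicates at 75% or more, or half of them and the mean; inconclusive = half reach 75% but not the mean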;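 note: 0% = cytokine-treated negative control wells and 100% = positive control rescue; higher means more ATP so stronger rescue from cytokine killing; wells of about 40 µL received 100 nL stock; the first replicate is given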
# A1 inh = inhibitors of the anti-apoptotic protein A1, read as caspase activation; actives 0.066% (n = 330,000); caspase activation, % (no concentration beside the values); MEF A1-2A-BIM cells, Caspase-Glo 3/7 luminescence, 3 h; percent of clofoctol response, vehicle zero; AID 2462;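 active = over half of replicate activation scores above 10%, or exactly half above 10 with the replicate mean above 10; inconclusive = replicate mean below 10 yet half the replicates above 10; inactive = over half of replicates below 10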;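 note: wells of about 30 µL received 50 nL stock; many hits fall short of the cut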
# rRNA inh HTS = selective bacterial rRNA inhibition in E. coli. E. coli WT GFP vs humanized-ribosome RFP mutants, fluorescence, 24 h; stronger effect = lower value; DMSO median 0, no signal -100. GFP signal change (wild-type ribosome), % (concentration not given with the values). actives 1.6% (n = 350,000). AID 720706;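 active = significant combined selectivity score with lowered wild-type GFP, culture density cut under 30%, mutant RFP and density less affected; inactive = any of these conditions unmet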; note: one replicate is shown; some compounds called inactive have numbers as strong as hits
# Calb FLC = C. albicans growth modulation with fluconazole; C. albicans CaCi-2 (fluconazole-resistant clinical isolate) + fluconazole, Alamar Blue growth, 48 h; growth inhibition, % (test concentration not listed); actives 0.57% (n = 300,000);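 active = most replicates above 75%; inconclusive = exactly half above 75%; inactive = most below 75%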;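 note: all wells also contain fluconazole at 8 µg/ml as a sub-toxic cotreatment; 0% = median of DMSO wells and 100% = median of geldanamycin control wells; wells of about 8 µL received 7.5 nL stock; the first replicate is given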
# rRNA inh HTS OD600 = also measured in rRNA inh HTS; calls as there; OD600 change, %; measured here: OD600 growth;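 optical density of the mix in the first replicate; 0 = DMSO median and -100 = no signal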
# rRNA inh HTS RFP = further read-out of rRNA inh HTS, marked with its call; RFP signal change, %; measured here: RFP humanized mutant strains;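 first replicate; 0 = DMSO median and -100 = no signal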
# * marks the source's active call; other numbers are inactive results; ? = inconclusive; · = not tested or not shown.
# Below each SMILES: LANA-H2B inh	B2AR ag	ALR inh	T cruzi repl	Beta apoptosis	A1 inh	rRNA inh HTS	rRNA inh HTS OD600	rRNA inh HTS RFP	Calb FLC
- COc1ccc(CNC(=O)CSCc2ccccc2Cl)cc1
    1.6	28.0	98.1*	-7.4	-1.1	-0.4	·	·	·	2.6
- CC(=O)c1sc(Nc2ccccn2)nc1C
    2.4	-11.7	-14.2	-2.2	-2.5	-0.9	·	·	·	37.2
- O=S(=O)(c1ccc2nc(Cc3ccccc3)[nH]c2c1)N1CCOCC1
    1.9	-6.3	-1.4	-1.5	-0.8	0.7	·	·	·	-3.7
- Cc1cc(C)n(-c2ncc(-c3ccccc3)nn2)n1
    1.5	-27.0	-0.7	-10.1	2.9	-2.3	-0.6	3.9	-0.7	7.7
- COc1ccc(-c2cc(-c3ccccc3)nc(SC(C)C(=O)O)c2C#N)cc1 (stereo unspecified)
    -0.7	6.7	·	26.6	-3.1	0.3	-47.2	-74.9	-8.4	42.0
- Cc1cc(Cl)ccc1NNC(=O)c1snnc1C
    -1.3	-0.6	98.9*	·	-5.2	-0.2	5.9	20.8	8.1	85.6*
- Cc1occc(=O)c1OCc1ccc(Cl)cc1Cl
    3.0	5.7	-1.4	-5.3	-6.7	-0.1	-1.7	-3.1	-0.3	-3.0
- CC(=O)Nc1cccc(CP(=O)(c2ccccc2)c2ccccc2)c1
    -6.3	-16.0	-4.3	8.9	-2.2	0.5	-1.3	-4.2	2.2	-9.5
- CCCCN(C1CCS(=O)(=O)C1)S(=O)(=O)c1cccs1 (stereo unspecified)
    0.6	0.8	23.3	-3.6	·	0.1	3.5	5.8	-0.8	15.6
- Cc1ccc(OCCNC(=O)c2cccc(C)c2)cc1
    0.7	-14.0	2.9	-12.0	·	0.3	-2.2	0.2	-0.5	-9.0
- NS(=O)(=O)c1cccc(NC(=O)Nc2ccc(Cl)cc2)c1
    4.0	3.8	2.7	-6.8	6.0	0.0	-31.4*	-11.3*	11.0*	-11.2
- COc1ccc(-n2c(N)c(C(=O)NCC3CCCO3)sc2=S)cc1 (stereo unspecified)
    0.5	1.7	16.8	-8.3	10.6	-1.9	·	·	·	-19.2
- Cc1ccc(CN2CCN(Cc3ccc4c(c3)OCCO4)CC2CCO)cc1 (stereo unspecified)
    -1.8	-13.0	12.0	19.8	-0.3	0.2	9.4	4.2	-5.2	-4.0
- COc1ccc(S(=O)(=O)N2CC(C)N(C(=O)N(C)C)C2C(C)C)cc1 (stereo unspecified)
    2.7	-0.6	-3.6	4.9	·	-0.4	6.3	5.3	-1.3	-0.6
- CCCNC(=S)N1CCN(c2nc(C)nc3sc4c(c23)CCCC4)CC1
    7.2	-10.5	-5.4	12.9	·	0.6	-30.0	-36.0	-1.7	9.3
- Cc1ccc(S(=O)(=O)N2CCOCC2)cc1NC(=O)COC(=O)Cc1ccsc1
    7.0	2.7	-5.6	-14.6	-1.2	0.7	13.5	7.8	4.1	-9.3
- CC1(C)CC(=O)c2cc(C(=O)NC3CCSC3=O)c(=O)n(-c3ccccc3)c2C1 (stereo unspecified)
    4.2	-7.5	-0.7	15.5	·	0.0	·	·	·	-4.6
- O=C(NC(=S)Nc1ccc(CN2CCOCC2)cc1)c1cc2ccccc2o1
    -3.8	-11.2	-2.3	-4.6	4.3	-1.4	-0.1	0.0	-3.5	12.4
- c1ccc2sc(Nc3nc4cc5c(cc4s3)OCO5)nc2c1
    0.4	-9.1	·	29.6	4.5	-0.5	·	·	·	-11.4
- O=C(NC(=S)N1CCc2ccccc21)c1ccccc1Cl
    -4.8	1.2	10.4	-28.8	·	-1.2	-46.5	-41.0	-10.1	0.6
- CC(C)(C)c1ccc(OCC(=O)Nc2ccc(-c3nc4cccnc4o3)cc2)cc1
    1.8	109.6*	-2.8	-21.0	-5.2	0.4	·	·	·	1.1
- C/C(Cl)=C\Cn1c(NCCc2ccccc2)nc2c1c(=O)n(C)c(=O)n2C
    14.7	-11.9	5.8	28.8	69.7	-1.0	26.6	16.6	1.3	14.0
- COc1ccccc1-n1nnnc1SCC(=O)N(C)C1CCS(=O)(=O)C1 (stereo unspecified)
    -0.5	-1.3	-6.3	·	-4.4	-0.5	3.1	-4.0	-4.8	·
- O=C(/C=C/c1ccccc1)C1C(=O)c2ccccc2C1=O
    -6.8	5.3	14.9	-15.4	·	-5.6	·	·	·	?
- N#CC1(NC(=O)COC(=O)/C=C/c2ccc3ccccc3n2)CCCCC1
    -1.8	-4.3	5.0	-20.2	-4.7	1.6	3.3	-0.9	5.5	-2.2
- COc1ccc(Cl)cc1NC(=S)NC(=O)c1ccc2c(c1)OCO2
    1.7	-15.0	·	-60.2	-3.0	1.3	20.4	21.1	3.6	1.8
- COc1ccc(-c2cc3c(=O)n(CC(=O)NCc4cccnc4)nc(C)n3n2)cc1
    -4.3	-6.1	1.9	-7.0	2.4	-3.8	1.6	6.1	-1.4	-0.9
- COc1ccc(C2C(C(=O)O)c3ccccc3C(=O)N2C)cc1Br (stereo unspecified)
    -2.5	-1.4	4.8	10.7	-8.2	0.9	·	·	·	4.0
- C=CCn1cccc(C(=O)Nc2ccc(C)c(Cl)c2)c1=O
    1.5	-4.7	-1.6	-15.3	-2.3	-2.1	8.9	20.8	0.1	-4.7
- CCOc1ccc(C2c3c(oc4cc(C)c(C)cc4c3=O)C(=O)N2CCCN(C)C)cc1OC (stereo unspecified)
    -1.7	-1.3	-21.9	-8.0	3.3	0.1	4.1	12.4	-1.0	9.8

# Going on with the list:
# Below each SMILES: LANA-H2B inh	B2AR ag	ALR inh	T cruzi repl	Beta apoptosis	A1 inh	rRNA inh HTS	rRNA inh HTS OD600	rRNA inh HTS RFP	Calb FLC
- CCOc1ccc(NC(=O)CN(C)C(=O)c2cc([N+](=O)[O-])ccc2N2CCOCC2)cc1OCC
    0.5	4.7	-14.7	-5.7	·	0.0	0.2	5.0	0.3	5.9
- COc1ccc(NC(=O)c2ccc3c(c2)CCN3S(=O)(=O)c2ccccc2)cc1
    0.4	10.6	-2.5	-7.2	-0.2	0.1	-2.0	7.5	14.8	-4.7
- Cc1ccc(NC(=S)Nc2cccnc2)c(S(=O)(=O)N2CCCCC2)c1
    -2.5	0.8	-25.6	-8.8	54.4	-0.2	-16.6	-14.6	-3.5	-19.8
- O=C(CSc1ncccn1)N/N=C/c1cccs1
    3.6	-6.8	-4.9	-9.9	-3.4	-0.3	·	·	·	-22.6
- O=C(NCCCN1CCOCC1)C(=O)N/N=C/c1cccc2ccccc12
    7.3	6.8	-1.5	-26.4	0.1	0.0	-5.4	-6.0	-1.2	-1.0
- CCC1(c2ccccc2)NC(=O)N(CC(=O)Nc2cc(Cl)ccc2N2CCN(C)CC2)C1=O (stereo unspecified)
    -17.7	7.5	9.4	·	0.5	-0.1	-8.2	-4.3	7.9	·
- COc1nc(Nc2cccc(F)c2)nc(OC)n1
    -4.0	-3.8	-11.2	-7.4	·	-5.0	11.9	-1.4	-3.0	2.9
- Cc1cc(C)n(-c2ccc(C(=O)NCc3cccs3)cc2)n1
    0.1	-5.1	5.5	-4.8	-0.8	-0.2	·	·	·	-2.6
- CCCCOc1ccc(OCCSc2nc3ccccc3n2CC(=O)O)cc1
    0.3	-7.9	46.9	-1.4	2.3	0.0	-23.9	-32.2	-4.7	16.4
- CC1(C)CC(=O)C(N=Nc2cc(C(F)(F)F)ccc2Cl)=C(O)C1
    -0.1	-16.5	·	4.9	-1.5	0.4	6.3	14.3	1.7	2.2
- CC(/C=C/C1(O)C(C)CC(=O)CC1(C)C)OC1OC(CO)C(O)C(O)C1O (stereo unspecified)
    1.8	1.4	7.2	-1.2	-3.8	1.3	-3.7	-4.3	-1.1	-4.7
- O=C1N[C@@H](Cc2cn(S(=O)(=O)c3ccccc3)c3ccccc23)C(=O)N[C@H]1Cc1ccccc1
    6.0	-0.2	17.5	1.4	-3.1	0.3	1.1	-0.9	-3.0	-2.0
- CN(C)CCCNc1ccc(-c2nn(C)c(=O)c3ccccc23)cc1[N+](=O)[O-]
    3.7	-1.4	-3.5	67.6*	8.8	1.9	20.9	5.3	0.7	-8.2
- CCOc1ccccc1/C=N/NC(=O)c1ccc(Cn2cc([N+](=O)[O-])cn2)o1
    -4.7	3.6	·	-10.5	·	0.5	·	·	·	4.6
- COc1cccc(NC(=O)[C@H](Cc2ccccc2)NC(=O)[C@@H]2Cc3ccccc3CN2)c1
    -0.4	-7.4	-5.9	20.0	0.4	?	0.3	-2.2	-3.5	-2.1
- CCOC(=O)C1=C(O)c2ccccc2C(=O)/C1=C\c1ccc(C)cc1
    2.6	-906.6	·	·	-2.1	-1.3	·	·	·	·
- O=C(Nc1cc(C(F)(F)F)ccc1N1CCOCC1)c1ccccc1
    -3.3	-13.2	40.0	0.1	4.7	0.2	·	·	·	8.8

# Part of the list above, bar-delimited:
Compound | LANA-H2B inh | B2AR ag | ALR inh | T cruzi repl | Beta apoptosis | A1 inh | rRNA inh HTS | rRNA inh HTS OD600 | rRNA inh HTS RFP | Calb FLC
Cc1cc(C)n(-c2ccc(C(=O)NCc3cccs3)cc2)n1 | 0.1 | -5.1 | 5.5 | -4.8 | -0.8 | -0.2 | · | · | · | -2.6
CCCCOc1ccc(OCCSc2nc3ccccc3n2CC(=O)O)cc1 | 0.3 | -7.9 | 46.9 | -1.4 | 2.3 | 0.0 | -23.9 | -32.2 | -4.7 | 16.4
CC1(C)CC(=O)C(N=Nc2cc(C(F)(F)F)ccc2Cl)=C(O)C1 | -0.1 | -16.5 | · | 4.9 | -1.5 | 0.4 | 6.3 | 14.3 | 1.7 | 2.2
CC(/C=C/C1(O)C(C)CC(=O)CC1(C)C)OC1OC(CO)C(O)C(O)C1O (stereo unspecified) | 1.8 | 1.4 | 7.2 | -1.2 | -3.8 | 1.3 | -3.7 | -4.3 | -1.1 | -4.7
O=C1N[C@@H](Cc2cn(S(=O)(=O)c3ccccc3)c3ccccc23)C(=O)N[C@H]1Cc1ccccc1 | 6.0 | -0.2 | 17.5 | 1.4 | -3.1 | 0.3 | 1.1 | -0.9 | -3.0 | -2.0
CN(C)CCCNc1ccc(-c2nn(C)c(=O)c3ccccc23)cc1[N+](=O)[O-] | 3.7 | -1.4 | -3.5 | 67.6* | 8.8 | 1.9 | 20.9 | 5.3 | 0.7 | -8.2
CCOc1ccccc1/C=N/NC(=O)c1ccc(Cn2cc([N+](=O)[O-])cn2)o1 | -4.7 | 3.6 | · | -10.5 | · | 0.5 | · | · | · | 4.6
COc1cccc(NC(=O)[C@H](Cc2ccccc2)NC(=O)[C@@H]2Cc3ccccc3CN2)c1 | -0.4 | -7.4 | -5.9 | 20.0 | 0.4 | ? | 0.3 | -2.2 | -3.5 | -2.1
CCOC(=O)C1=C(O)c2ccccc2C(=O)/C1=C\c1ccc(C)cc1 | 2.6 | -906.6 | · | · | -2.1 | -1.3 | · | · | · | ·
O=C(Nc1cc(C(F)(F)F)ccc1N1CCOCC1)c1ccccc1 | -3.3 | -13.2 | 40.0 | 0.1 | 4.7 | 0.2 | · | · | · | 8.8

# Some of the compounds tested, so the mix of outcomes need not match the whole.
